# Source: PubChem BioAssay
# Env fusion inh: blocks HIV Env-driven cell-cell fusion; HeLa-JRFL Env/CEM21 cell fusion, luciferase; inhibition, % at 12.3 µM; 360,000 compounds, 1.1% hits; AID 651610;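 active means mean replicate inhibition score of at least 50 and every replicate individually at or above 50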;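 further: 0% = plate neutral controls and 100% = maraviroc near 300 nM; one replicate is shown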
# eIF4H FP inh: inhibitors of RNA binding by human eIF4H; Q15056; eIF4H fluorescence polarization binding assay; inhibition, % at 35 µM; 290,000 compounds, 0.94% hits;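 active means 50% or more with normal probe brightness, or confirmed in later tests; about a fifth of its hits are not listed in these tables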;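 further: calls also rest on retests at 20 µM and on dose response follow-up; 0% = protein and probe with vehicle and 100% = probe without protein; strong numbers were not always called active; many hits fall short of the cut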
# CSC inhib: cancer stem cell inhibition; cancer stem cell-like cells viability, luminescence; inhibition, % at 7.5 µM; 300,000 compounds, 1.1% hits; AID 2717;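 active means mean at 75% or more and at least half the replicates too; tested in HMLE shEcad cells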;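 further: 0% = median of negative and 100% = median of positive control wells; the first replicate is given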
# PABP polyA inh: blocks human PABP binding to poly(A) RNA; P11940; 290,000 compounds, 1% hits; inhibition, % at 35 µM; fluorescence polarization;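 active means 50% or more with normal probe brightness, or confirmed in later tests; about a fifth of its hits are not listed in these tables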;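 further: calls also rest on retests at 20 µM and on dose response follow-up; controls were probe without protein and protein plus probe with vehicle; some compounds called inactive have numbers as strong as hits; many hits fall short of the cut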
# Target sequence (P11940 whole entry, looked up): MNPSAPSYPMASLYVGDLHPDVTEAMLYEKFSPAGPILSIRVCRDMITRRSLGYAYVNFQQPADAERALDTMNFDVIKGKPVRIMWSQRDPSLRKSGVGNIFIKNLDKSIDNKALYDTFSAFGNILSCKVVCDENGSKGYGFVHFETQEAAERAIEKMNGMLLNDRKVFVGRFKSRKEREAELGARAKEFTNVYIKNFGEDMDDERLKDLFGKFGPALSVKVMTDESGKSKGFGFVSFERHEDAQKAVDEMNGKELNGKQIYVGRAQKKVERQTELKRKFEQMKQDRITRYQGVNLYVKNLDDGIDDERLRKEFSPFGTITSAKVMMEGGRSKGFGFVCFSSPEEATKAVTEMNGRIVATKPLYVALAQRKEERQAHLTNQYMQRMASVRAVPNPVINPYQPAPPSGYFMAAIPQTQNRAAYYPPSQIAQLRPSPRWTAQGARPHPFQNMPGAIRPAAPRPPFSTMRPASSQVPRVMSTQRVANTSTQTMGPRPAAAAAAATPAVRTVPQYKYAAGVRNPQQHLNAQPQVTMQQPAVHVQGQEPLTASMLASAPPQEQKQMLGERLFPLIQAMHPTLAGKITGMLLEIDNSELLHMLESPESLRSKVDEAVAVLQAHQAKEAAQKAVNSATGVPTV
# Yeast UUG start: modulators of start codon recognition fidelity in yeast | S. cerevisiae UUG-firefly luciferase reporter, luminescence/redox ratio | activity score, % at 18.7 µM | 350,000 compounds, 0.13% hits | AID 602363;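 active means replicate mean at a twofold rise or more, about +100% in these data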;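 further: firefly luciferase made from a UUG start codon reports start codon fidelity; reporter light over untreated wells divided by growth signal over untreated wells; some hits fall short of that in this replicate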
# Rce1 inhib: yeast Ras-converting enzyme inhibition. AID 2563. calls only. 290,000 compounds, 0.27% hits. yeast membranes, quenched prenylated peptide cleavage fluorescence. Q03530;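 active means fall in fluorescence gain of 50% or more versus controls, with final raw signal at or below 3038400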;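 further: plate controls were neutral control wells for no effect and wells lacking membranes for full effect; tested at 10 µM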
# Target sequence (Q03530 whole entry, looked up): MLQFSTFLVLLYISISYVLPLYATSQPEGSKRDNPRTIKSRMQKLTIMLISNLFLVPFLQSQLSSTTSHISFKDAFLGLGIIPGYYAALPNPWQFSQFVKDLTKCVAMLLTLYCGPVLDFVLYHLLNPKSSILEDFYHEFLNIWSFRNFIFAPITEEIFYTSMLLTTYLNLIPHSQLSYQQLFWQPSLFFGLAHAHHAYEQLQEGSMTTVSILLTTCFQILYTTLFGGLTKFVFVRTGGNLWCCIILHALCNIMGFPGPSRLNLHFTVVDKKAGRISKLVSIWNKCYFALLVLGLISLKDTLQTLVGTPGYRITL
# MT1-MMP act inh: MT1-MMP (human) activation inhibition | P50281 | HT1080 RFP-PRO-GFP cells, GFP/RFP ratio fluorescence, overnight; percent of plate control window, DMSO zero | GFP/RFP ratio change, % at 20 µM | 360,000 compounds, 0.061% hits;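 active means GFP/RFP ratio change of at least 30% with cell ATP level not reduced by more than half and red fluorescence within 50% of control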; further: strong numbers were not always called active
#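 Assay system – RFP-PRO-GFP reporter HT1080 cells · Compound dosing – single dose of 20 µM compound, 1% DMSO final · Incubation – overnight compound exposure at 37 °C · Measure – GFP/RFP fluorescence ratio · Benchmarks – DMSO wells and RFP-L50D-GFP cells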
# eIF4H FP inh retest: recorded beside eIF4H FP inh, whose call it bears; inhibition, %; compound at 20 µM; confirmation average;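 mean of two retest wells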
# PABP polyA inh retest: second read-out of PABP polyA inh, no call of its own (marks repeat the call); inhibition, %; compound at 20 µM; confirmation repeats;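 mean of two retest wells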
# MT1-MMP act inh RFP: second read-out of MT1-MMP act inh, no call of its own (marks repeat the call); RFP signal change, %; measured here: RFP expression control read;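 0 = vehicle wells; hits needed this value within 50% of zero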
# * hit, by the source's call; i = inactive; . = no result given; & = joins results of further samples; [ ] = remark or other dose.
SMILES,Env fusion inh,eIF4H FP inh,CSC inhib,PABP polyA inh,Yeast UUG start,Rce1 inhib,MT1-MMP act inh,MT1-MMP act inh RFP,others
CC(C)CC(=O)N1CCN(Cc2ccc3c(c2)OCO3)CC1,.,-4,0,19,.,i,4,1,
COc1cc(NC(=O)[C@@H](NC(=O)N2CCn3c2nc2ccccc23)C(C)C)cc(OC)c1,-8,-7,-14,-3,-31,i,1,-1,
CC1(C)C2CC=C(/C=N/n3cnnc3)C1C2 (stereo not given),.,3,-21,1,-22,i,0,5,
CCOC(=O)N1CCC(=NNC(=O)c2cc3ccccc3cc2O)CC1,-92,46,8,-12,-14,i,4,2,
COCCN1CC(C(=O)NCc2ncccc2C)CCC1=O (stereo not given),4,-8,2,-2,-11,.,1,-1,
Cc1cc(C)c(S(=O)(=O)N2CCCC(C(=O)NC3CCCC3)C2)c(C)c1 (stereo not given),3,-6,7,6,-7,i,-7,-8,
O=C(CN(C1CCCCC1)S(=O)(=O)c1ccccc1)NCc1cccnc1,.,1,9,-9,-16,i,2,3,
CCOC(=O)C1CCCN(Cc2ccccc2C)C1 (stereo not given),2,1,-20,-1,-16,i,10,1,
Cc1ccc(CNC(=O)C2CCC(=O)N(CC3CCCCC3)C2)o1 (stereo not given),1,-4,-6,4,2,i,2,3,
O=C(Cc1ccccc1)N[C@@H](Cc1ccccc1)c1nc2ccccc2[nH]1,.,1,-9,1,.,i,2,-14,
CCCC(CCC)C(=O)Nc1ccc2c(c1)N(C(=O)CCN1CCN(C)CC1)c1ccccc1CC2,-24,-1,-19,8,.,i,-2,0,
CCOc1ccc(-c2cc(CCCC(=O)NCCc3ccccc3)no2)cc1,3,-3,2,0,7,i,3,0,
O=C(O)c1ccccc1C(=O)OCCc1cc2ccccc2c(=O)o1,-25,.,3,.,-12,.,-4,-3,
CCSc1nnc(NC(=O)[C@@H](NC(=O)c2ccccc2F)C(C)C)s1,7,-1,-10,10,.,i,-4,-3,
CCN(CC#CCC1(O)c2ccccc2-c2ccccc21)CCO,-32,3,.,0,.,i,-5,3,
Cc1ccc(OCc2cc(C(=O)NC3CCOC3)no2)cc1C (stereo not given),5,-3,-7,-8,-20,i,3,3,
CCCCNC(=O)c1ccc(CS(=O)(=O)Cc2ccccc2F)o1,-1,1,-11,-12,-9,i,-1,-2,
CCOc1ccc(CCNC(=O)CSc2nnnn2C)cc1OCC,-10,0,3,3,.,i,0,4,
O=c1c2ccccc2nc(SCc2nnc(-c3ccccc3Br)o2)n1-c1ccccc1,.,-7,-9,-11,2,i,-5,-3,
CC1CCCC(NC(=O)COC(=O)c2cc(=O)[nH]c3ccccc23)C1C (stereo not given),-6,.,-20,.,-9,.,-2,-1,
c1ccc(CN=C(NCc2ccccc2)NCc2ccccc2)cc1,3,.,.,.,-14,.,2,-24,
CCOc1c(Cl)cc(CNC(C)(C)CC(C)(C)C)cc1OC,19,2,.,-4,.,i,4,-2,
CCn1c(COc2ccccc2C)nnc1SCC(=O)N1CCN(c2ccccc2)CC1,-15,1,29,-10,-11,i,-10,-15,
COc1ccc(-c2csc(NC(=S)NC(=O)c3ccco3)n2)cc1Br,5,-10,72,-11,-2,i,1,-1,
O=C(NCC1CCCO1)c1cc2cc(Cl)ccc2[nH]1 (stereo not given),-9,-16,-9,-5,-18,i,0,-3,

# The closing 2 records of the section before are carried over, then new ones follow:
SMILES,Env fusion inh,eIF4H FP inh,CSC inhib,PABP polyA inh,Yeast UUG start,Rce1 inhib,MT1-MMP act inh,MT1-MMP act inh RFP,others
COc1ccc(-c2csc(NC(=S)NC(=O)c3ccco3)n2)cc1Br,5,-10,72,-11,-2,i,1,-1,
O=C(NCC1CCCO1)c1cc2cc(Cl)ccc2[nH]1 (stereo not given),-9,-16,-9,-5,-18,i,0,-3,
CCc1ccc(NC(=O)CS(=O)CC(=O)NCCCc2ccccc2)cc1 (stereo not given),.,-5,-3,-14,-10,i,0,-3,
CCOC(=O)C1CCN(S(=O)(=O)c2ccc(Cl)nc2)CC1,-4,-3,-15,0,-14,i,0,-2,
Nc1cc(Cl)ccc1Nc1ccncc1,11,98,-15,-2,0,i,1,5,eIF4H FP inh retest=-3;PABP polyA inh retest=1
CCOC(=O)CCCC(=O)N1CCOCCOCCOCC1,-11,-3,0,0,.,i,6,3,
O=C(CC1NCCNC1=O)Nc1cc(Cl)cc(Cl)c1 (stereo not given),18,2,-1,-7,-6,i,4,3,
CN(C)S(=O)(=O)N(CC(=O)Nc1ccccc1)c1ccccc1,.,8,.,-7,-11,i,1,6,
Cc1ccn2cc(-c3cnoc3C)nc2c1,-88,-4,1,2,-10,i,2,2,
COc1c(F)cccc1C1=CC(=O)C[C@H](c2ccc3c(c2)OCO3)C1,-8,.,28,.,-1,.,7,6,
COc1cccc(NC(=O)N(C)C[C@@H]2OCc3cn(nn3)CCCC(=O)N([C@H](C)CO)C[C@H]2C)c1,-6[16.7 µM],.,.,.,-4&6&-12,.,9,12,
CC(C)(C)N(Cc1cc2ccccc2[nH]c1=O)C(=O)C1CCCCC1,.,-10,5,3,.,i,-9,-3,
O=C(c1ccco1)N1CCC(c2nc3ccccc3[nH]2)CC1,0,.,-12,.,-6,i,-2,0,
CC(NS(C)(=O)=O)C(c1cccs1)N1CCN(C)CC1 (stereo not given),-75,-1,.,-6,-15,i,2,-1,
CCC(NC(=O)NCc1ccc2c(c1)OCO2)(C(F)(F)F)C(F)(F)F,-7,2,4,4,26,i,4,-3,
CC(=Nc1ccccc1)C1=C(O)COC1=O,.,-5,-2,19,-14,i,1,2,
Cc1ccc(S(=O)(=O)N(C)C)cc1-n1c(SCC(=O)Nc2ccc(F)cc2Cl)nc2ccccc2c1=O,0,1,37,-12,-9,i,-9,-10,
CC(C)(CN1CCN(C(c2ccccc2)c2ccccc2)CC1)NS(=O)(=O)c1ccccc1,17,-18,98*,-2,-2,i,-5,-13,
O=C(Cn1ncc2ccccc2c1=O)Nc1cccc(C(F)(F)F)c1,-3,.,.,.,-30,.,3,1,
O=C(C[C@H]1C/C=C\CC[C@H](Cc2ccc(F)cc2)C(=O)OC[C@@H]2CCCN2C1=O)N[C@H](CO)Cc1ccccc1,-27,.,10,.,4,.,3,5,
O=C(N/N=C/c1ccc(-c2ccc(Br)cc2)o1)c1ccc2c(c1)OCO2,-16,12,8,3,-22,i,-7,-6,
c1ccc(-c2cc(-c3nc(-c4ccccn4)no3)c3ccccc3n2)cc1,.,.,32,.,-22,i,0,-1,
O=C(CC(c1ccccc1)c1ccccc1)Nc1ccc(O)cc1,-54,13,-6,-4,-11,i,3,-3,
COc1ccccc1N(C)S(=O)(=O)c1ccc(C(=O)Nc2nccs2)cc1,.,.,-2,.,-7,.,-2,-8,
O=C(O)CCn1nnc(-c2cccs2)n1,-39,7,13,9,-20,i,-4,1,
CCOc1cc(C2CC(=O)NC(SCC)=C2C#N)ccc1O (stereo not given),-2,3,-11,2,-5,i,0,3,
CN1CCN(C(c2cccnc2)c2ccc3cccnc3c2O)CC1 (stereo not given),.,7,25,-13,-30,i,3,3,
# Next compounds follow:
SMILES,Env fusion inh,eIF4H FP inh,CSC inhib,PABP polyA inh,Yeast UUG start,Rce1 inhib,MT1-MMP act inh,MT1-MMP act inh RFP,others
Cc1cc2c(cc1C)CSC(c1ccc(O)cc1)SC2,.,2,-22,-5,-19,i,2,-1,
COc1cccc(/C=N/N2CCN(C3c4ccccc4-c4ccccc43)CC2)c1O,14,-5,44,7,-12,i,0,-5,
COc1ccc(-c2ccc3nnc(SCC(N)=O)n3n2)cc1,10,-7,-15,-16,.,i,0,4,
O=C(NCCc1ccccc1)c1ccc(Cl)c([N+](=O)[O-])c1,-24,-3,7,3,25,i,-2,-3,
Cc1ccc(-c2n[nH]c(=S)nc2-c2ccc(C)cc2)cc1,9,-6,2,-4,.,i,-1,-1,
CC(=O)c1ccc(-n2cc(C#N)c(=O)[nH]c2=O)cc1,11,6,.,7,.,i,5,5,
CCOC(=O)c1c(-c2ccccc2)csc1NC(=O)/C(C#N)=C/c1ccc(OC)c(OC)c1,4,34,0,-2,.,i,-12,-1,
O=[N+]([O-])c1cccc(-c2ccc(/C=N/n3c(-c4ccccc4)n[nH]c3=S)o2)c1,.,-1,-8,0,-15,i,5,6,
COc1ccc(-c2csc(NC(C)c3nc4cc(C(=O)NCCCO)ccc4n3Cc3ccc(C)cc3)n2)cc1 (stereo not given),-59,.,-6,.,-26,i,-2,3,
CN(C)c1nc2c(N)ncnc2n1C1OC(CO)C(O)C1O (stereo not given),7,.,.,.,-5,.,0,1,
CC1(C)c2[nH]c3ccccc3c2C[C@@H]2C(=O)N(Cc3ccc(F)cc3)C(=O)N21,13,.,-26,.,-10,i,7,-2,
COc1ccc(-c2sc3ccccc3c2/C=C/c2ccc(N)cc2)cc1,-28,.,97*,.,-11,.,-2,1,
O=C(CN1C(=O)C(=O)N(Cc2ccccc2)C1=O)Nc1ccc(OC(F)F)cc1,-5,.,-6,.,-13,.,-1,-2,
CCN(c1cccc(C)c1)S(=O)(=O)c1nnc(NC(=O)c2ccco2)s1,2,4,12,6,-18,i,1,-1,
CN(C(=O)c1ccc(NC(=O)Cc2cccc(NC(=O)C3CCCN(C(=O)c4ccccc4)C3)c2)cc1)C1CC1 (stereo not given),9,.,.,.,-21,.,4,2,
O=C(CNC(=O)c1ccccc1)NCCO,-4,6,5,2,-9,i,1,7,
O=C(O)c1cc(-c2ccc(Cl)cc2)n[nH]1,.,3,-9,8,.,i,3,3,
CCN(CC)c1ccc(NC(=O)c2cncc(Br)c2)cc1,.,-3,.,-4,-6,i,-5,-15,
CCOC(=O)C1=c2s/c(=C\c3cccnc3)c(=O)n2C(N)=C(C(=O)OC)C1c1cccnc1 (stereo not given),.,-8,-7,1,-19,i,-4,-4,
CC(O)[C@H]1CN=C(N)N1CC1CCCCC1 (stereo not given in full),-6,.,-10,.,-7,i,0,0,
Cn1c(=O)c2c(nc(CN3CCCCC3)n2CCc2ccccc2)n(C)c1=O,.,-1,-23,-1,-10,i,0,5,
Cc1ccc(NC(=S)N(CCN(C)C)C(C)c2cccnc2)c(C)c1 (stereo not given),-2,-2,-10,2,.,i,4,0,
Cc1nnc(SCC(=O)NCc2ccccc2)n1-c1ccccc1,-72,-4,7,-6,-10,.,-8,-6,
CC(C)C[C@@H](CN=[N+]=[N-])N1CCN(CC(C)C)CCC1=O,-10,-4,-1,-6,-7,i,3,3,
Fc1ccc(C2=Nc3cccc4cccc(c34)N2)cc1,9,-8,-2,-7,-9,i,-6,4,
# Other structures.
SMILES,Env fusion inh,eIF4H FP inh,CSC inhib,PABP polyA inh,Yeast UUG start,Rce1 inhib,MT1-MMP act inh,MT1-MMP act inh RFP,others
CC(=O)c1c(C)[nH]c(C(=O)Nc2ccc(C)c(S(=O)(=O)N(C)C)c2)c1C,-34,-12,2,-2,-16,i,12,-1,
COc1ccc(-n2nnnc2SCC(=O)c2ccc3c(c2)OCCO3)c(OC)c1,.,0,11,-2,.,i,5,-18,
CC(C)N(C(=O)[C@H]1C[C@H](CC(=O)NCc2ccco2)C(=O)N2CCc3c([nH]c4ccc(Cl)cc34)[C@]12C)C(C)C,23,.,.,.,11,.,-19,-28,
COc1cc(OC)c(C2=NOC(C(=O)N3CCN(C(=O)c4ccco4)CC3)C2)cc1Cl (stereo not given),29,-3,0,0,-4,i,2,2,
CC(=O)NC(Cc1ccc(F)cc1)C(=O)NC1CCN(c2nnnn2-c2ccccc2)CC1 (stereo not given),8,-15,5,-5,-3,i,5,2,
CCOc1ccc(C2C(C(=O)O)c3ccccc3C(=O)N2CCN2CCOCC2)cc1 (stereo not given),.,4,-12,-1,1,i,-10,-4,
OCC1(Cc2ccccc2F)CCCN(Cc2c(F)ccc(F)c2F)C1 (stereo not given),12,-2,17,-2,-5,i,-6,-7,
